Assay outcomes from PubChem.
SARS PLP yeast: inhibitors of SARS-CoV papain-like protease in yeast | 330,000 compounds, 0.19% hits | S. cerevisiae expressing SARS-CoV PLpro, growth rescue; control for the full effect not named in the record | Potency, µM (series often up to 32.9 µM), without a hit: top-dose activity, positive = growth rescue; active means well fitted rising curve with a large enough effect; inconclusive means small, poorly fitted or top-dose-only effect; inactive means no such curve, though single readings can be large or run the other way; also: 0% is about no effect; nearly all actives have a fitted effect of over 55% in size; growth read by luminescence after 48 h
Cruzain noTriton: blocks cruzain activity in detergent-free assay | P25779 | purified cruzain, Z-FR-AMC fluorescence, no detergent | Potency, µM, without a hit: max response, negative = inhibition, most hits filed as inhibitors | 200,000 compounds, 2.3% hits | AID 1476;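 also: plate controls were enzyme without inhibitor for no effect and buffer without enzyme for full effect; nearly all actives have a fitted effect of over 40% in size; top concentration of the series not given in the record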
Target sequence (P25779 123-467 limits assumed): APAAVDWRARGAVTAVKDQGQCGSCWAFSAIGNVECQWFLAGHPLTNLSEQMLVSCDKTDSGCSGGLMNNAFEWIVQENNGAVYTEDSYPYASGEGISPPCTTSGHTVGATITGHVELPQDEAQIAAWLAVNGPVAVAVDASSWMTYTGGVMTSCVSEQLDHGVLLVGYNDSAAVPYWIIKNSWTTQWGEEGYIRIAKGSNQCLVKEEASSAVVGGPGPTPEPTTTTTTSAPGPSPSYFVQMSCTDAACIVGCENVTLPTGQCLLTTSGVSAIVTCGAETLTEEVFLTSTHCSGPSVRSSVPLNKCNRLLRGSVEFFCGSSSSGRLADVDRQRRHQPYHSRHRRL
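Purified cruzain at 1.5 nM, pre-incubated 15 min with compound at room temperature in 100 mM sodium acetate pH 5.5, 5 mM DTT, 0.00005% Triton X-100. Reaction started with 2 uM Z-FR-AMC; AMC fluorescence increase over 60 s gives rate.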
NS1 function inh: blocks influenza NS1 protein function | S. cerevisiae slowed by influenza A NS1, growth recovery by OD600 | Potency, µM (titrated, usually from 46.1 µM), inactives show top-dose activity, positive = more growth | 270,000 compounds, 0.4% hits; active means well fitted rising curve with a large enough effect; inconclusive means small, poorly fitted or top-dose-only effect; inactive means no such curve, though single readings can be large or run the other way; also: nearly all actives have a fitted effect of over 50% in size
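OD600 was taken as the measure of yeast growth restored by compound in an NS1-expressing S. cerevisiae strain. Cells had been washed out of glucose medium and diluted 1:100 into galactose -URA medium, pH 6.0.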
Cruzain inh Det: blocks cruzain activity in presence of Triton detergent; P25779; purified cruzain, Z-FR-AMC fluorescence, 0.01% Triton; Potency, µM, for the others: max response, negative = inhibition, most hits filed as inhibitors; 200,000 compounds, 0.43% hits;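 also: plate controls were neutral wells for no effect and buffer without enzyme for full effect; nearly all actives have a fitted effect of over 40% in size; top concentration of the series not given in the record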
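Steps: dispense cruzain (1.5 nM final) in acetate buffer pH 5.5 with DTT and 0.01% Triton X-100; pin-transfer compounds; incubate 15 min RT; add Z-FR-AMC (2 uM final); read fluorescence every 30 s, using the 60 s intensity change.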
Lassa entry inh: blocks Lassa virus binding to or entry into cells; Potency, µM (doses to about 37.9 µM), without a hit: at the highest dose activity change, negative = inhibition, usual class: inhibitors; 300,000 compounds, 1.2% hits; Lassa virus pseudotype entry inhibition, cell reporter; control for the full effect not named in the record; active means well fitted inhibition curve with a large enough effect; inconclusive means small, poorly fitted or top-dose-only effect, or effect the other way; inactive means flat fitted curve, though single readings scatter; tested in HEK293 cells; also: % is scaled to controls: 0 for no effect and ±100 for the full control effect; nearly all actives have a fitted effect of over 50% in size; luciferase read-out
RE007 growth inh: less growth of the S. pombe RE007 Vpr strain | S. pombe RE007 Vpr strain, BacTiter-Glo ATP luminescence, 24 h; control for the full effect not named in the record | Potency, µM (series often up to 92.2 µM), for inactives: top-dose activity change, negative = less growth | 360,000 compounds, 0.21% hits | AID 651644; active = well fitted falling curve with a large enough effect; inconclusive = small, poorly fitted or top-dose-only effect; inactive = no such curve, though single readings can be large or run the other way;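 also: % is scaled to controls: 0 for no effect and ±100 for the full control effect; nearly all actives have a fitted effect of over 50% in size; the assay follows cell death caused by Vpr and the record does not say whether a fall means rescue or toxicity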
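Fission yeast strain RE007, carrying one chromosomally integrated HIV-1 vpr copy, was seeded at OD 0.01 in PMG+AL medium with 23 nL pinned compound. After 24 h at 30 °C and 99% humidity, viability was read by BacTiter-Glo luminescence.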
StopGo reporter: FMDV 2A StopGo reporter, luciferase signal | human cells with a luciferase reporter of 2A StopGo recoding; control for the full effect not named in the record | Potency, µM (titrated, usually from 57.9 µM), without a hit: top-dose signal change, negative = less light | 410,000 compounds, 1.2% hits; active = well fitted falling curve with a large enough effect; inconclusive = small, poorly fitted or top-dose-only effect; inactive = no such curve, though single readings can be large or run the other way; tested in HEK293T cells; also: % is scaled to controls: 0 for no effect and ±100 for the full control effect; nearly all actives have a fitted effect of over 45% in size; luciferase light after 4 h
MARV entry inh: inhibitors of Marburg virus binding or cell entry; AID 540276; Potency, µM (series often up to 37.8 µM), inactives show top-dose activity change, negative = inhibition, actives largely listed as inhibitors; 300,000 compounds, 1.8% hits; Marburg virus pseudotyped entry inhibition, cell reporter; control for the full effect not named in the record; about a third of the inactives were read at about 46 µM; active = well fitted inhibition curve with a large enough effect; inconclusive = small, poorly fitted or top-dose-only effect, or effect the other way; inactive = flat fitted curve, though single readings scatter; tested in HEK293 cells; about a fifth of its hits are not listed in these tables; also: % is scaled to controls: 0 for no effect and ±100 for the full control effect; luciferase read-out
The depositor's hits bear a star; ? = inconclusive; · = not tested or not shown; & = joins results of further samples; [ ] = another dose, or the depositor's remark. Unless noted, calls follow the shape of the dose curve; as a rule, active = well fitted curve in the direction sought with a large enough effect; inconclusive = small, poorly fitted or top-dose-only effect, or another doubt; inactive = no such curve, though single readings can be large; an effect the other way counts as inactive or inconclusive. Potency is read from the fitted curve at half-maximal effect.

SMILES | SARS PLP yeast | Cruzain noTriton | NS1 function inh | Cruzain inh Det | Lassa entry inh | RE007 growth inh | StopGo reporter | MARV entry inh
CCCC1=C(C(=O)OCC)C(c2ccccc2OCC)NC(=O)N1C (centres undefined) | -3% | -3% | -46% | 3.3% | 7% | -11% | 0% | ?
O=C(Oc1ccccc1C(=O)Oc1ccccc1)c1ccco1 | 0% | -13% | 4% | 0.1% | 5% | 12% | 7% | ?
CSCCC(NS(=O)(=O)c1ccc(Cl)cc1)C(=O)N1CCN(c2ccccc2)CC1 (centres undefined) | · | · | · | · | -24% | -24% | 33%[activator] | ?
CCOC(=O)c1c(NC(=O)c2cc(-c3ccc(Cl)cc3)on2)sc(C)c1C | · | 11% | · | -3.9% | -6%[46.1 µM] | · | -14% | -6%[46.1 µM]
COc1ccccc1CNC(=O)CSc1ccc(C)cc1 | -8% | 5% | 16% | 5.5% | -2% | 4% | 2% | ?
COc1ccc(NC(=O)CSc2nnc(Cc3cccn3C)n2CCc2ccccc2)cc1OC | 1% | ? | -15% | -9.3% | 35%[14.3 µM] | 2% | 1% | -6%
COC(=O)C1CCN(S(=O)(=O)c2ccc(OC)cc2)CC1 | -6% | 0% | 1% | -7.1% | -1% | 45% | 9% | 11%
COc1ccc(N(C)S(=O)(=O)c2ccc3c(c2)oc(=O)n3C)cc1 | 5% | 6% | 6% | 8.3% | ? | -13% | -16% | -12%
COc1ccc(CNC(=O)COC(=O)CC2CCCC2)cc1 | 11% | 6% | 6% | 6.6% | 1%[46.1 µM] | 4% | -14% | -14%[46.1 µM]
CC1CN(CCC(=O)Nc2ccc3c(c2)OCO3)CC(C)O1 (centres undefined) | -1% | 0% | -1% | 2.5% | -1% | 6% | -18% | 21%
C=CCOC(=O)/C(=C\c1ccc(OC)cc1)NC(=O)c1ccco1 | -3% | -5% | -45% | 2.6% | 11% | -3% | -1% | 3%
O=C(NCCCN1CC1)Nc1cccc2ccccc12 | · | · | · | · | -16%[46.1 µM] | 14% | -11% | ?
CCc1nnc(NC(=O)NCN2C(=O)C3C4C=CC(C4)C3C2=O)s1 (centres undefined) | 1% | -2% | 1% | 2.7% | -13% | 11% | -26% | 7%
COc1ccc(CCNS(=O)(=O)c2ccc3c(c2)c(=O)n(C)c(=O)n3C)cc1OC | · | -13% | · | -2.2% | -13%[46.1 µM] | · | -6% | 2%[46.1 µM]
O=C(Nc1cccc(OCc2cc(=O)n3ccccc3n2)c1)c1ccccc1Br | · | -7% | · | 3.2% | -27%[46.1 µM] | · | 12% | ·
COCCOC(=O)C1=C(C)N(Cc2ccccc2)C(=O)NC1c1ccc(OC)cc1 (centres undefined) | 11% | -5% | 6% | -0.8% | ? | -2% | -17% | -7%
CC1=C(C(=O)N2CCc3ccccc32)C2(CCC(C)CC2)OC1=O (centres undefined) | ? | -7% | -43% | -2.7% | -20% | -11%[3.69 µM] | 6% | -13%
COc1cccc(CNC(=O)Cc2ccc(NC3=NC4CS(=O)(=O)CC4S3)cc2)c1 (centres undefined) | 10% | · | 18% | · | · | 3% | -22% | ·
Cc1ccc2c(Cl)cc(Cl)c(OCc3c(C)noc3C)c2n1 | -1% | -24% | 0% | 2.5% | 0% | -17% | -9% | -12%
O=C(CCCn1c(=O)[nH]c2cc(Cl)ccc2c1=O)NCCN1CCN(c2ccccc2)CC1 | -3% | -13% | -2% | -3.2% | 3% | -3% | ? | -20%
COC(=O)Nc1nc2ccc(-c3n[nH]c(=O)c4ccccc34)cc2[nH]1 | 17% | -15% | -4% | -15% | ? | -9% | -4% | -9%
COc1ccc(S(=O)(=O)N2CCOCC2)cc1NC(=O)COC(=O)C1CC2CCCC(C1)C2=O (centres undefined) | 5% | · | -5% | · | · | 9% | 0% | ·
CC(Sc1nnc(NC2CCCCC2)s1)C(=O)N1CCOCC1 (centres undefined) | -4% | · | · | · | 8% | -12% | 20% | 7%
O=C(N=C1SC2CS(=O)(=O)CC2N1Cc1ccc(Cl)cc1)C1CCCO1 (centres undefined) | 0% | · | -5% | · | · | -1% | -10% | ·
COc1cc(CNCc2ccccn2)ccc1OCc1ccc(Cl)c(Cl)c1 | 0% | · | · | · | ? | 0% | -9% | ?
O=C(NC1CCCC1)c1noc2c1CCCCC2 | -1% | -7% | -6% | 1.1% | 9% | ? | 39%[activator] | -7%
CS(=O)(=O)N1CCN(C(=O)c2c(F)cccc2F)CC1 | 3% | 7% | 1% | -5.6% | ? | -2% | -12% | -2%
COc1ccc(C2NC(=O)NC(O)(C(F)(F)F)C2C(=O)c2ccc(F)cc2)cc1 (centres undefined) | -2% | 4% | 2% | 9.5% | -12% | 5% | -9% | ?
Cc1ccc2c(COC(=O)c3ccc(NC(=O)CC#N)cc3)cc(=O)oc2c1C | 2% | · | 11% | · | ? | 3% | 13% | 22%[46.1 µM]
CSc1ccc(CCNC(=O)Cn2ncn3c(cc4ccccc43)c2=O)cc1 | · | 10% | · | -1.8% | · | · | -7% | 21%[46.1 µM]
C=C(C)CN(Cc1ccccc1)C(=S)Nc1ccccc1 | ? | · | 1% | · | -1%[46.1 µM] | 0% | 12% | 0%[46.1 µM]
O=C(NCc1ccc(Cl)cc1)c1ccc(Cl)cc1[N+](=O)[O-] | 2% | -3% | 4% | 0.4% | 4% | -17% | 13% | 11%
CC(=O)NCC(=O)N1CCCC(C(=O)c2ccc(-c3ccccc3)c(F)c2)C1 (centres undefined) | -1% | · | -4% | · | 14% | 0% | -14% | -3%[46.1 µM]
CCc1ccc(N2CCn3c2nc2c3c(=O)n(CCCc3ccccc3)c(=O)n2C)cc1 | · | 12% | · | -2.3% | -9%[46.1 µM] | · | 18% | ·
Cc1cc(C)n2nc(C(=O)OCC(=O)NC3CCCCC3)nc2n1 | 0% | · | · | · | -14% | -2% | -6% | 14%
CCCCN1C(=O)C(=O)N(CC(=O)Nc2ccccc2C(C)=O)C1=O | 4% | · | · | · | -2% | 22% | -5% | 18%
COc1ccc(CC(=O)Nc2c(C(N)=O)oc3ccccc23)cc1OC | · | · | 0% | · | -19%[46.1 µM] | -6% | -28% | -1%[46.1 µM]
COc1cc(NC(=O)c2ccc(S(=O)(=O)N(C)c3ccccc3OC)cc2)cc(OC)c1 | -4% | · | · | · | ? | 1% | 20% | ?
Cc1c(C(=O)N(Cc2ccc(N(C)C)cc2)CC2CCCO2)oc2ccc(Br)cc12 (centres undefined) | · | 0% | · | -2.2% | ? | · | 1% | ?
CC(=O)Nc1ccc(NC(=O)CSc2nc3ccccc3nc2N2CCCCC2)cc1 | · | -1% | 6% | -3.3% | 4% | 7% | 9%&-30% | 21%&20%[46.1 µM]
NC(=O)NCC12CC3CC(CC(C3)C1)C2 | -5% | -5% | 1% | -2.4% | -25% | 5% | 6% | 0%
CC(=O)Nc1ccc(S(=O)(=O)N2CCN(c3nc(NC4CCCC4)c4ccccc4n3)CC2)cc1 | -3% | -2% | -16% | -2.0% | ? | 12% | ? | ?
CCCS(=O)(=O)c1nc(S(=O)(=O)c2ccc(C)cc2)c(NC)s1 | · | 1% | · | -5.8% | -19%[46.1 µM] | · | -12% | 8%[46.1 µM]
COC(=O)c1c(-c2cccs2)csc1NC(=O)COc1c(C)ccc(C)c1C | · | 25µM* | · | -7.7% | 3%[46.1 µM] | · | -25% | ?
Cc1ccc(-n2c(SCC(=O)N/N=C/c3ccc(C)s3)nnc2-c2ccccc2)cc1 | -8% | -6% | 10% | -7.8% | ? | 24% | -15% | ?
Cc1ccc(NC2=NCC(=O)N2Cc2ccc3c(c2)OCO3)cc1 | -17% | -3% | 2% | 1.3% | 26% | -5% | 21% | 16%
COc1ccccc1Nc1nc2nonc2nc1N1CCC(C)CC1 | 1% | 0% | 0% | -3.8% | 8% | 4% | -7% | 7%
Cc1ccc(C(=O)Nc2nc(-c3ccccn3)cs2)o1 | -2% | · | -10% | · | · | -22% | 28% | ·
CC(C)N(CCCNC(=O)Cn1ncc2c([nH]c3ccccc32)c1=O)Cc1ccccc1 | -1% | · | -6% | · | 4%[46.1 µM] | -8% | -8%&-17% | ·
COc1ccccc1NS(=O)(=O)c1cc(NC(=O)CC(C)(C)C)ccc1N1CCOCC1 | 1% | · | · | · | -27% | -16% | 56%[activator] | ?
Cc1ccc(NC(=O)[C@H](NC(=O)[C@@H]2Cc3ccccc3CN2)c2ccccc2)cc1C | 1% | · | -9% | · | · | -1% | 30%[activator] | ·
COc1ccc(NC(=O)c2nc[nH]c2C(=O)N[C@@H](CC(C)C)C(=O)OC(C)(C)C)cc1 | 1% | · | -61% | · | · | 6% | -24% | ·
COc1ccc(/C=N/NC(=O)c2c(-c3ccccc3)noc2C)cc1 | 15% | -8% | -3% | -8.3% | ? | 3% | ? | 27%
O=C(Nc1ccc(F)cc1F)Nc1ccccc1C(=O)NCCN1CCNC1=O | -2% | · | -5% | · | · | 25% | 1% | ·
Fc1ccc(CCNCc2cccc(Cl)c2)cc1 | 3% | -8% | -6% | -2.5% | -13% | 6% | · | ?
CCN(CC)C(=O)Cn1cc(C(=O)C(=O)N2CCN(Cc3ccccc3)CC2)c2ccccc21 | 3% | · | 3% | · | -7%[46.1 µM] | 17% | -6% | 11%[46.1 µM]
CCOc1ncccc1C(=O)OCC(=O)NCc1ccc(C(=O)OC)cc1 | 0% | · | · | · | -1% | 10% | -14% | -3%
Cc1ccc2c(c1)N(C(=O)CCC(=O)O)CCO2 | 22% | 0% | 0% | -0.6% | -14% | 22% | -1% | 0%
COC(=O)c1cc(CNC(=O)c2ccccc2OCc2c(C)noc2C)ccc1OC | -10% | · | 4% | · | -24%[46.1 µM] | 6% | -5% | -7%[46.1 µM]
CCOC(=O)N1CCN(C(=O)c2ccc(CS(=O)Cc3ccc(C)cc3)o2)CC1 (centres undefined) | 5% | · | 5% | · | · | 22% | -24% | ·
CC(=O)c1c(C)[nH]c(C(=O)OCC(=O)Nc2ccc3[nH]c(=O)[nH]c3c2)c1C | -4% | · | · | · | 17% | 20% | 15% | 2%[46.1 µM]
